# VDR inh: inhibitors of human vitamin D receptor; VDR-SRC2-3 peptide fluorescence polarization, 2 h; Potency, µM, for the others: max response, negative = inhibition, most hits filed as inhibitors; 0.93% of 400,000 active; AID 504847; active means well fitted inhibition curve with a large enough effect; inconclusive means small, poorly fitted or top-dose-only effect, or another doubt; inactive means no such curve, though single readings can be large or run the other way; further: series mostly up to about 120 µM
# Target sequence (P11473 whole entry, looked up): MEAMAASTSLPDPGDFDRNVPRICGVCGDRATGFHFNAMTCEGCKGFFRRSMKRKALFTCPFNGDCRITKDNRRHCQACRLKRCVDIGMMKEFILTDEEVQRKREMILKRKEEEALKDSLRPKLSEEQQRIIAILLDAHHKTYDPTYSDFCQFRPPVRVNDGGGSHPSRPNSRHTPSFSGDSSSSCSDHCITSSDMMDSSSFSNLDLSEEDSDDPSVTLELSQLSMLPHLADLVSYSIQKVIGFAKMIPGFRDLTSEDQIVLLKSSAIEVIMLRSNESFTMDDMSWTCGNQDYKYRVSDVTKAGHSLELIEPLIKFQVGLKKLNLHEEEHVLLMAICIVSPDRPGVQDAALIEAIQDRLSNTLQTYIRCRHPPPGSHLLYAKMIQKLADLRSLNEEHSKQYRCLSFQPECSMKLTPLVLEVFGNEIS
#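 Inhibition of the VDR/SRC2-3 peptide interaction is quantified by fluorescence polarization. Compounds (23 nl, pintool) incubate with the reagents for 2 hours at ambient room temperature.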
# Numbers without * were called inactive; ? = inconclusive; & = joins results of further samples. On the % scale 0 is the no-effect control and ±100 the full control effect; potency means the concentration at half of the fitted maximal effect. This is a subset; the hit share may differ from the screen's.
SMILES,VDR inh
CCNC(=O)C1CC(=O)N(Cc2ccc(F)cc2)C(=Nc2ccc(OC)cc2)S1 (stereo not drawn),3%
COc1ccc(-c2nnc(SCc3nnc(-c4ccccc4)o3)n2C)cc1OC,-4%
O=C1CSc2ccccc2N1Cc1ccc(F)cc1,-1%
CCCN(CCC)C(=O)COc1cc(=O)n(CC)c2ccccc12,?
NC(=O)c1cccnc1OCC(F)(F)F,7%
COC(=O)CC1(C(=O)OC)Oc2ccc(Br)cc2C(=O)N1c1cc(Cl)cc(Cl)c1 (stereo not drawn),-1%
CSc1cc(-c2ccc(Cl)cc2)c(C(=O)NC(C)C)s1,-24%
Cn1c(Cc2cccs2)nnc1SCC(=O)Nc1ccc(C(N)=O)cc1,-11%
COc1cc(-c2nc3ccccn3c2/N=C/c2cccc(F)c2)ccc1O,-13%
C[C@]12C=CC(=O)C=C1CC[C@@H]1[C@@H]2C(=O)C[C@@]2(C)[C@H]1CC[C@]2(O)C(=O)CO,?
COC(=O)CSc1nnc(CNC(=O)c2ccc(OC)c(OC)c2)n1C,-4%
O=C(c1ccccc1F)N(Cc1ccccc1)C1CCS(=O)(=O)C1 (stereo not drawn),8%
Cc1ccccc1C(=O)Nc1ccnn1C1CCN(Cc2cccnc2)CC1,11%
O=C(CCCC(=O)c1ccccc1)NCc1ccccc1,-21%
CCC1CN(C(=O)N2CCC(C(=O)NCCCc3ccccc3)CC2)c2ccccc2O1 (stereo not drawn),18%
COc1ccc(C)cc1-n1nnc(S(=O)(=O)c2ccc(C)cc2)c1C,-9%
CCC(C)(C)NC(=O)Cn1c(-c2ccc(C)cc2)noc1=O,8%
O=C(C[C@H]1C/C=C\C[C@H](NC(=O)OCC2c3ccccc3-c3ccccc32)C(=O)OC[C@H](Cc2ccccc2)NC1=O)N[C@H](CO)Cc1ccccc1,4%
O=C(OCc1c(-c2ccccc2)ncc2ccccc12)N1CCOCC1,-23%
CCOc1cc2c(cc1C=O)OC(C)C2 (stereo not drawn),22%

# Fetched by structure from the list above:
SMILES,VDR inh
CCC1CN(C(=O)N2CCC(C(=O)NCCCc3ccccc3)CC2)c2ccccc2O1 (stereo not drawn),18%
COc1cc(-c2nc3ccccn3c2/N=C/c2cccc(F)c2)ccc1O,-13%
O=C(C[C@H]1C/C=C\C[C@H](NC(=O)OCC2c3ccccc3-c3ccccc32)C(=O)OC[C@H](Cc2ccccc2)NC1=O)N[C@H](CO)Cc1ccccc1,4%
COc1ccc(-c2nnc(SCc3nnc(-c4ccccc4)o3)n2C)cc1OC,-4%
COc1ccc(C)cc1-n1nnc(S(=O)(=O)c2ccc(C)cc2)c1C,-9%
NC(=O)c1cccnc1OCC(F)(F)F,7%

# (continued)
SMILES,VDR inh
Cc1cc(OCc2cc3c(cc2Cl)OCO3)c2c(C)cc(=O)oc2c1,-3%
COC(=O)c1cc(CNC(=O)c2ccc(N3CCCC3)c([N+](=O)[O-])c2)ccc1OC,?
Cc1sc2ncnc(SCC(=O)NC(C)(C)C)c2c1C,7%
COCCNC(=S)N1CCN(C/C=C/c2ccccc2)CC1,-4%
Cc1cccc(Cn2c(C(=O)OC(C)C)cc3c2ccn3C)c1,-9%
CSc1ncccc1C(=O)OCC(=O)NC(=O)NCCC(C)C,-8%
COc1ccc(-c2cc(C(=O)Nc3ccccc3SC)no2)cc1,12%
CCOc1ccc(C2=C(C(=O)CC)Sc3nncn3N2C(=O)CC)cc1,-7%
Cc1ccc(-n2ncc(C(=O)NCc3ccccn3)c2C2CCN(C(=O)OC(C)(C)C)CC2)c(C)c1,-6%
CC/C=C\C/C=C\C/C=C\C/C=C\C/C=C\C/C=C\CCC(=O)NCCCC(=O)O,-14%
CCNC(=O)NC(=O)C(C)OC(=O)CCCSc1nc2ccccc2s1 (stereo not drawn),-6%
CCN(CC)S(=O)(=O)c1ccc2c(c1)nc(CCC(=O)Nc1ccc(N3CCOCC3)cc1)n2C,-11%
Cc1ccccc1NC(=O)Cc1nc(COC(=O)COc2cccc(C)c2C)cs1,3%
Cc1cccc(Cn2cnc3c(N)c(C)c(C)cc32)c1,-10%
O=[N+]([O-])c1cc(-c2nnc(Nc3ccccc3)c3ccccc23)ccc1N1CCOCC1,-7%
Cc1ccc(S(=O)(=O)n2ccc3c2CCCC3=O)cc1,?
COc1cccc(-c2cc3c(-n4cccc4)ncnc3o2)c1,12%
CCCc1[nH]n(-c2ccc(F)cc2)c(=O)c1C=Nc1cccc(F)c1,-5%
O=C(O)c1cc(=O)n(Cc2ccccc2)c(=O)[nH]1,-12%
COc1ccc(C(=O)Oc2ccc3ccc(=O)oc3c2)cc1OC,-10%
O=C(Cn1cc(C(=O)c2ccco2)c2ccccc21)NC1CCCCC1,-9%
O=C(c1cccs1)c1c[nH]cc1-c1ccccc1,13%
COc1ccc(S(=O)(=O)N2CCOC2CNC(=O)C(=O)NCCc2ccccc2)cc1C (stereo not drawn),1%
CCc1noc(C)c1C(=O)OCC(=O)NC(=O)c1ccccc1OC,?
CCOc1cc2[nH]c(=O)n(CCCC(=O)NCc3ccc(OC)cc3)c(=O)c2cc1OCC,2%&-1%
Cc1ccc(CCNC(=O)c2cc3c(-c4ccccc4F)nn(C)c3s2)cc1,-16%
CCCCCCCCCCCCCCCC(=O)N[C@H](CN1CCOCC1)[C@H](O)c1ccccc1,0%&2%
CC(O)[C@@H](C(=O)N1CCNCC1)n1cc(CCCCN)nn1 (stereo partly drawn),-4%
NC(=O)c1ccccc1NC(=O)CCCc1ccccc1,10%
C[C@@H](C(=O)O)c1ccc(-c2ccccc2)c(F)c1,-9%
CC(=O)/C(=N/Nc1ccc(C)cc1)Sc1nnc(CCc2ccccc2)n1-c1ccccc1,0%
COc1cccc(NC(=O)C(OC(=O)/C=C/c2ccc3c(c2)OCO3)c2ccccc2)c1 (stereo not drawn),4%
C(=N\Nc1ccccn1)/c1c[nH]c2ccccc12,-8%
Cn1c(S(=O)(=O)O)nc2ccccc21,24%
COc1ccc(C(=O)N2CCCC(c3ccccc3)=N2)cc1,4%
CC1Cc2ccccc2N1C(=O)COC(=O)Cc1ccc(F)cc1 (stereo not drawn),-3%
O=C(CN(C(=O)CNS(=O)(=O)c1ccccc1)c1ccc2c(c1)OCCO2)NCc1ccco1,7%
COc1ccc(OCC(O)Cn2c(=N)n(Cc3ccccc3)c3ccccc32)cc1 (stereo not drawn),8%
c1ccc(-c2noc(-c3cccs3)n2)nc1,-8%
O=C1OC(CCl)CN1Cc1c(Cl)cccc1Cl (stereo not drawn),-7%
CC(C)CCC(=O)N1CCOC1=O,15%
COc1ccc(S(=O)(=O)N2CCCC(C(=O)NCc3ccccn3)C2)cc1 (stereo not drawn),9%
Cc1cnc(C(=O)OCC(=O)NC(C)CCc2ccccc2)cn1 (stereo not drawn),25%
CCOc1ncccc1C(=O)NCCc1ccc(S(N)(=O)=O)cc1,0%
CC1CN(C(NC(=O)C(C)(C)C)C(Cl)(Cl)Cl)CC(C)O1 (stereo not drawn),1%
Cc1ccc(N2C(=O)c3ccc(C(=O)N4CCOCC4)cc3C2=O)cc1C,42%
O=C(Nc1cc(S(=O)(=O)N2CCOCC2)ccc1O)c1ccc(NS(=O)(=O)c2ccc(Cl)s2)cc1,-23%
Cc1cccc(C)c1OCCn1c(C2CC(=O)N(c3cccc(Cl)c3)C2)nc2ccccc21 (stereo not drawn),0%
CC(=O)C1=C(C)N(Cc2ccco2)C(=O)C1(NC(=O)C1CCCCC1)C(F)(F)F (stereo not drawn),-10%
CC(OC(=O)CN1C(=O)c2ccccc2C1=O)C(=O)NCc1ccccc1 (stereo not drawn),-16%
CCN(CC)CCCNC(=O)C(C)Sc1nc(-c2ccccc2)cc(C(F)(F)F)n1 (stereo not drawn),1%
CCN(Cc1ccccc1)C(c1cccs1)c1nnnn1C1CCCCC1 (stereo not drawn),-7%
CC(C)NS(=O)(=O)c1ccc(OCC(=O)Nc2ccc(F)cc2)cc1,2%
CC(C)(C)C1CCC(OC(=O)CN2CCCCC2)CC1 (stereo not drawn),9%
COc1ccc(CN2CCSCC2)c(C)c1C,-1%
Cc1ccc(CNC(=O)c2c(O)nc3cc(C)ccn3c2=O)cc1,-13%
CC1=CC(C)(C)N(C)C(=O)N1c1ccc(Cl)cc1,7%
Cc1cc([N+](=O)[O-])cnc1NC(C)c1ccccc1 (stereo not drawn),0%
Cc1c(Cl)cccc1NC(=O)C(=O)NNS(=O)(=O)c1ccc(F)cc1,-20%
O=C(CSCc1ccccc1Cl)N1CCN(c2ccc(Cl)cc2)CC1,8%

# Of the compounds above, these have a COOH group.
SMILES,VDR inh
CC/C=C\C/C=C\C/C=C\C/C=C\C/C=C\C/C=C\CCC(=O)NCCCC(=O)O,-14%
O=C(O)c1cc(=O)n(Cc2ccccc2)c(=O)[nH]1,-12%
C[C@@H](C(=O)O)c1ccc(-c2ccccc2)c(F)c1,-9%

# The list goes on.
SMILES,VDR inh
O=S(=O)(CCN1CCCCC1)CCS(=O)(=O)CCN1CCCCC1,-4%
COC(=O)c1[nH]c2cc(OC)c(OC)cc2c1NC(=O)Oc1ccccc1,10%
CC1(c2nnc(Cc3ccccc3)o2)CC(c2ccc([N+](=O)[O-])cc2)=NO1 (stereo not drawn),-27%
COc1ccccc1CNC(=O)Cn1ncn2c(cc3sccc32)c1=O,-7%
Cc1cccc(NC(=O)CN2C(=O)CCn3nc(-c4cccn4C)cc32)c1C,12%
Cc1cc(Cl)ccc1OCC(=O)OC(C)C(=O)N(C)C (stereo not drawn),9%
O=C(COc1ccc(Br)cc1)c1ccc2c(c1)CCCC2,0%
O=C(Nc1ccccc1)N1CCN(c2ccc(F)cc2)CC1,5%
Cc1ccn(CCC(=O)Nc2ccc3c(c2)OCO3)n1,-9%
Cc1cccc(NC(=O)CN(CC2CCCO2)C(=O)c2cc(S(=O)(=O)N(C)C)ccc2F)c1C (stereo not drawn),-6%
NC(=O)c1ccccc1NCC(=O)c1ccc(F)cc1,-7%
COc1ccc(S(=O)(=O)n2nc(C)c(S(=O)(=O)N3CCCCCC3)c2C)cc1C,15%
Cc1cccc(NC(=O)c2cc(N3CCOCC3)nc3ccccc23)c1,13%
COCc1ccc(C(=O)N(C)CC2CCCN(CCc3ccc(OC)cc3)C2)o1 (stereo not drawn),-15%
CC1Cc2cc(S(=O)(=O)N3CCC(C(=O)N4CCN(c5ccccc5F)CC4)CC3)ccc2N1C(=O)C1CC1 (stereo not drawn),-10%
COc1ccc2cc(-c3ccccc3)ncc2c1,-2%
COc1cc(C)c(CN2CCN(C(C)C(=O)NC(C)c3ccccc3)CC2)cc1OC (stereo not drawn),-6%
CC1=CN(S(=O)(=O)c2ccc(C)cc2)C[C@@H]2[C@H]3CC[C@H](C3)[C@H]12,-19%
CS(=O)(=O)N(CC(=O)NCc1ccccn1)Cc1ccc(Cl)cc1,-1%
O=C(Nc1ccc2c(c1)OCCO2)c1ccc(Cl)cc1Cl,-2%
COC(=O)c1ccc(NC(=O)C(=O)NCC2CCCO2)cc1 (stereo not drawn),-30%
O=[N+]([O-])c1ccc2nc(NS(=O)(=O)c3ccc(F)cc3)sc2c1,-27%
Cc1ccc([N+](=O)[O-])cc1-c1ccc(/C=N\n2nnnc2N)o1,-1%
Cc1nn(Cc2ccccc2)c2c1C(c1cccc(Cl)c1)C(C#N)=C(N)O2 (stereo not drawn),?
NS(=O)(=O)c1ccc(NC(=O)COC(=O)c2cnc(Cl)c(Cl)c2)cc1,-17%
Cc1ccc(NC(=O)c2ccc(S(=O)(=O)N3CCOCC3)cc2)c(C)c1,-16%
CC(=O)c1cc2c(cc1NC(=O)c1ccc(Cl)cc1)OCCO2,-17%
Cn1nc(C(F)(F)F)cc1C(=O)NC1CCCCCC1,5%
CCOc1ccc(-c2c(C(=O)N/N=C/c3ccc(C)s3)nnn2-c2nonc2N)cc1,-11%
CC(C)(C)OC(=O)N1CCC(C(=O)N[C@H](C(=O)O)c2ccccc2)(c2ccccc2)CC1,-19%
C/C=C(\C)CN1CCCC(N(C)CCc2ccc(OC)c(OC)c2)C1 (stereo not drawn),-9%
CCCn1nc(C(=O)OCC(=O)Nc2cccc(OC)c2)c2ccccc2c1=O,11%
CCn1cc(CCC(=O)NCc2ccc(C)cc2)c2ccccc21,5%
COc1ccc(CCN(C)C(=O)CSc2nnnn2C)cc1OC,3%
CCCSc1nc2sc3c(c2c(=O)n1-c1cccc(Br)c1)CC(C)(C)OC3,-4%
COc1ccccc1C1CC(=O)NC(C)=C1C(=O)OCC1CCCO1 (stereo not drawn),0%
Cc1ccc2c(c1)CCCN2CC(=O)Nc1cc(S(=O)(=O)N2CCCC2)ccc1Cl,4%
CCN(CC)CCCNC(=O)CCC(=O)Nc1ccc2nc(N3CCC(C)CC3)cc(C)c2c1,-6%
Cc1cccc(CCNC(=O)c2nn(C)c3c2CSc2ccccc2-3)c1,-3%
Cc1ccc(NC(=O)CSc2nnc(-c3ccncc3)n2C)cc1C,-12%
COc1ccccc1OCCNC(=O)C1CC(=O)N(Cc2ccc(C)cc2)C1 (stereo not drawn),-6%
CC(C)(C)NC(=O)CN(C(=O)C(=O)Nc1ccc2c(c1)OCCO2)C1CC1,25%
Cc1cc(C)c(OCCOCCN2CCCC2)c(C)c1,-4%
COc1ccc(-c2oc(NC(=O)CSc3nncn3C)c(C#N)c2-c2ccc(OC)cc2)cc1,-10%
O=C(CN1C(=O)NC(c2ccccc2)(c2ccccc2)C1=O)NC1CCCC1,-9%
CSCCC(NC(N)=O)C(=O)Nc1ccc(F)c(Cl)c1 (stereo not drawn),7%
NNc1ccc(Cl)nn1,3%
CC(C)(CNC(=O)CNC(=O)C1CCCCC1)N1CCOCC1,-8%
O=C(Nc1nnc(-c2cccc(F)c2)s1)Nc1ccccc1F,-16%
Cc1ccc(C(=O)NNC(=O)COc2ccc(Cl)cc2C)o1,14%
O=C(NCCCN1CCN(c2ccccc2F)CC1)c1ccc2nc(N3CCCCC3)sc2c1,-4%
NC(=S)NC(c1ccccc1)c1ccncc1 (stereo not drawn),-9%
